Source: PubChem
PINK1 modulator = changes PINK1 expression; Potency, µM (series often up to 76.6 µM), inactives show at the highest dose activation (PINK1 increase), actives largely listed as activators; PINK1 immunofluorescence, high-content cytometry, 24 h; 410,000 compounds, 0.2% hits; AID 624263; active = well fitted activation curve with a large enough effect; inconclusive = small, poorly fitted or top-dose-only effect; inactive = flat fitted curve, though single readings scatter; cell line not stated here;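 further: potency means the concentration at half of the fitted maximal effect; % of control where 0% means no effect; nearly all actives have a fitted effect of over 65% in size; a mitochondrial uncoupler was the plate control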
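Measures PINK1 amount and localization on or inside mitochondria by immunofluorescence. Stable cells get compounds at 5 concentrations for 24 hours before fixation and staining; CCCP controls included.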
ClpP mod = qHTS Assay for Activators of ClpP. 340,000 compounds, 1.9% hits. purified B. subtilis ClpP, FRET peptide cleavage, 20 min. Potency, µM (highest dose often 57.5 µM), for inactives: at the highest dose activity change, negative = active; active = well fitted falling curve with a large enough effect; inconclusive = small, poorly fitted or top-dose-only effect; inactive = no such curve, though single readings can be large or run the other way; further: potency means the concentration at half of the fitted maximal effect; the source files actives as falling curves though it sought activators and does not explain the sign; nearly all actives have a fitted effect of over 65% in size; many hits overshoot -100%
Target sequence (P80244 whole entry, looked up): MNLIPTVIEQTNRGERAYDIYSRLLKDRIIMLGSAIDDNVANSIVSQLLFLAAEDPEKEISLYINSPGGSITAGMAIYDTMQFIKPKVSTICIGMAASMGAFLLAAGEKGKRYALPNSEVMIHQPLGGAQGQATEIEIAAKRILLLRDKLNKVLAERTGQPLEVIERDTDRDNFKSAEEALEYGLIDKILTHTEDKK
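ClpP 10 microg/mL final, pH 8 Tris/KCl buffer with BSA, glycerol, Tween-20; compound pinned in; FRET-FV substrate; RT 20 min; Ex320/Em430; ΔFRET vs ADEP 5.8 microM, DMSO, no enzyme.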
Menin MLL FP FL = displaces fluorescein MLL peptide from human menin. Fluorescence polarization, fluorescein-MLL peptide displacement from menin. FP activity change, % at 61.4 µM. 290,000 tested, under 10 active. AID 1766; inconclusive = falling polarisation curve, or a change in total fluorescence; inactive = total fluorescence flat and polarisation flat or rising; no compound was filed as active; the % refers to the polarisation; negative = inhibition;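 further: % of control where 0% means no effect; inhibitors lower the polarisation; unlabelled MLL peptide was the positive control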
TRPML1 ag = human mucolipin-1 channel agonism. Q9GZU1. TRPML1-expressing cells, Ca2+ dye fluorescence, FDSS; host cell line not named in the record; reference of the full effect not given here. activation, % (no concentration beside the values). 410,000 compounds, 0.12% hits; in the data active = activation above about 50%; inconclusive = about 30% to 50%; inactive = below about 30%; further: 0% is about no effect; the text of the record puts the active cut at 80%
Target sequence (Q9GZU1 whole entry, looked up): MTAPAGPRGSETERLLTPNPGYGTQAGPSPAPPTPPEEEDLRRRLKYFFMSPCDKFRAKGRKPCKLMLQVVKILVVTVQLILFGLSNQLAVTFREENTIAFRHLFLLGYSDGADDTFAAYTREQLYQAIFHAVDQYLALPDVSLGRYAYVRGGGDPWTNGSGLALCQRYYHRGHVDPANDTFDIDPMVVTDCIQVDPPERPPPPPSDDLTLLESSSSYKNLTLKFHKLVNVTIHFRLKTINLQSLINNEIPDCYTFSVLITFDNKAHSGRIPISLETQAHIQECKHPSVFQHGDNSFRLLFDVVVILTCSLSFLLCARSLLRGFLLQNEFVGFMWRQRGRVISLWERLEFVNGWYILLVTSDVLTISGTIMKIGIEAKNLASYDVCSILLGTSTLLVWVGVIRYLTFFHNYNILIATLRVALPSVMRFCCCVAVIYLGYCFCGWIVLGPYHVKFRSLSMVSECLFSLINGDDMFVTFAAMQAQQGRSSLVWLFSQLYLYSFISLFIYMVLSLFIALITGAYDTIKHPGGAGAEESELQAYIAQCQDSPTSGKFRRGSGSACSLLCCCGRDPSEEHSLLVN
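Tet-induced TRPML1-DL cells, 1,500 per well, cultured overnight, were loaded with a no-wash Ca2+ dye for 45–90 min. Calcium fluorescence was recorded on the FDSS for 110 s after compound addition, before the EC80 agonist (4 uM 54-4) was added.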
TRPV1 PAM = human TRPV1 potentiation. 320,000 compounds, 0.02% hits. Q8NER1. potentiation, % at 8.33 µM. TRPV1-expressing cells, Fluo-8 calcium influx, capsaicin EC20 potentiation; host cell line not named in the record; control for the full effect not named in the record; active means potentiation above 80%; inconclusive means 30% to 80%; inactive means below 30%; further: 0% is about no effect
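Fluo-8 calcium influx in TRPV1-expressing cells, kinetic read (ex 480/em 520 nm). Compound added and read 3 min for agonist activity, followed by capsaicin at EC20 final and 2 min further read for enhancement.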
Sfp PPTase inh = inhibitors of Bacillus subtilis Sfp phosphopantetheinyl transferase. Biochemical Sfp PPTase activity, qHTS. Potency, µM, for the others: max response, negative = inhibition, actives largely listed as inhibitors. 310,000 compounds, 3.5% hits. AID 1490; active means well fitted inhibition curve with a large enough effect; inconclusive means small, poorly fitted or top-dose-only effect, or another doubt; inactive means no such curve, though single readings can be large or run the other way;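 further: the enzyme is Sfp with the accession as filed and its product quenches rhodamine fluorescence; potency means the concentration at half of the fitted maximal effect; 0% = enzyme reaction without inhibitor and -100% = no enzyme wells; top concentration of the series not given in the record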
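Fluorescence-quenching assay with 15 nM Sfp, 5 uM rhodamine-CoA and 12.5 uM BHQ-2-labelled ybbR peptide in pH 7.6 Hepes/MgCl2 buffer. Enzyme was pre-incubated with compound for 15 min at room temperature. Rate was taken from the 30-min fluorescence change (525/598 nm).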
TRPML1 inh = blocks the human TRPML1 channel | activity change, negative = inhibition, % (concentration not given with the values) | Q9GZU1 | 390,000 compounds, 0.02% hits | TRPML1-inducible cells, Ca2+ dye fluorescence, FDSS; stronger effect = lower value; inhibition of EC80 agonist-evoked calcium signal; in the data active means activity change below about -50%; inconclusive means about -30% to -50%; inactive means above about -30%;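 further: stimulus is agonist 54-4 at its EC80 concentration; on the % scale 0 is the no-effect control and ±100 the full control effect; the text of the record puts the active cut at -80%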
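Calcium fluorescence in TRPML1-DL cells induced overnight with Tet: a 110 s read after compound pin addition, then a 110 s antagonist read after challenge with 54-4 at 4 uM final (EC80).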
* = called active by the depositor; ? = inconclusive; . = no result given; & = joins results of further samples; [ ] = another dose, or the depositor's remark.

Values in the order – PINK1 modulator, ClpP mod, Menin MLL FP FL, TRPML1 ag, TRPV1 PAM, Sfp PPTase inh, TRPML1 inh
- Cc1cc(=O)n2c3ccccc3n(C)c2n1
    1.9%, -1.5%, -2.7, 0.5, 4, 4%, 16
- CC(C)(C)NC(=O)NC(=O)CN1CCN(S(=O)(=O)/C=C/c2ccccc2)CC1
    0.4%, ., -2.6, 0.0, -5, 9%, -7
- CCOc1ccc(C(=O)NCC(=O)N2CCCCCCC2)cc1
    1.5%, 2.0%, ., -0.7, ?, ., -3
- COc1ccc(CNC(=O)CS(=O)(=O)Cc2nc(-c3ccc(OC)cc3)oc2C)cc1
    8.3%, 3.6%, 0.9, -0.1, -23, 20%, 15
- CC(C)Nc1nc(Nc2ccc(C(N)=O)cc2)c2sccc2n1
    7.1%, -14%, ., -1.1, ., ., .
- Clc1ccc(Cc2ccc(SCc3ccccc3)nn2)c(Cl)c1
    ., -8.5%, 4.1, 3.1, -10, 0%, -5
- CCOC(=O)C1=NNC(C(=O)c2ccccc2)C1c1ccc(Cl)cc1 (configuration not stated)
    2.8%, ., 0.0, 3.1, -15, -2%, -2
- CCNc1ncc2nc(-c3cc(F)cc(F)c3)c(=O)n(Cc3cccs3)c2n1
    3.9%, ., 0.4, ., ., 36%[activator], .
- COC(=O)C1CCN(C(=O)C2CCCCC2)CC1
    -0.2%, -3.3%, -0.6, -0.2, -2, 6%, 3
- O=C(COc1ccc2c(c1)CCC2)Nc1ccccn1
    1.1%, 1.5%, ., -0.6, -29, ., 11
- Cc1cc(NC(=O)COc2ccc3c(C)c(C)c(=O)oc3c2)no1
    2.3%, 4.1%, ., -0.2, ., ., 7
- O=C(Nc1cccc(C(=O)N2CCCCC2)c1)c1nsc2ccccc12
    -1.6%, 0.2%, ., 1.7, ., ., 10
- COc1ccc(Cl)cc1NC(=O)Cn1cc(S(=O)(=O)Cc2cccc(Cl)c2)c2ccccc21
    1.5%, -4.7%, ., 0.4, ., ., 11
- Cc1ccccc1NC(NC(=O)c1cccs1)C(Cl)(Cl)Cl (configuration not stated)
    -0.7%, 25µM*, 6.1, 0.2, -16, 13%, 10
- COC(=O)c1ccc(NC(=O)c2nn(C)c3c2CS(=O)(=O)c2ccccc2-3)cc1
    7.3%, -0.3%, ., -0.2, ., ., -11
- COC(=O)Cn1c(=O)c2c(nc3n2CCN3c2ccc(F)cc2)n(C)c1=O
    1.6%, ?, ., -0.5, ., ., -5
- COc1cccc(NC(=O)c2ccccc2Oc2ccccc2)c1
    1.4%, -1.2%, 8.0, 1.4, 20, -4%, 6
- c1ccc(C2OCCN2c2ccccc2)cc1 (configuration not stated)
    0.2%, -2.0%, ., -0.5, ., ., 14
- Nc1cc(=O)[nH]c2nnc(SCC(=O)Nc3cccc4ccccc34)n12
    2.4%, 1.3%, 0.3, -1.4, 10, 14%, 8
- COC(=O)c1ccccc1NC(=O)c1cc2ccccc2o1
    5.1%, ., -11, 1.3, 6, 16%, 10
- COc1cc(C(CCN2CCCC2)c2c(OC)cc(OC)c3c(-c4ccccc4)cc(=O)oc23)cc(OC)c1OC (configuration not stated)
    0.2%, -1.5%, -4.0&9.3, 0.1&0.7, -17, -14%, 1&12
- CCCCCCn1c(=O)c(F)cn(Cc2ccc(OC)c([N+](=O)[O-])c2)c1=O
    2.7%, 0.1%, -0.8, 1.2, -3, -4%, 19
- COc1ccc(-c2nc3cnc(Nc4ccccc4)nc3n(Cc3cccs3)c2=O)cc1
    9.5%, ., ?, ., ., 15%, .
- CSc1ncccc1C(=O)OCC(=O)NCCCc1ccccc1
    1.0%, 1.3%, ., 0.3, ., ., -5
- COCCCNC(=O)CCN1N=C(c2ccccc2)CCC1=O
    -2.0%, -1.0%, -1.1, 1.3, 7, 13%, 0
- Cc1cccc(C(=O)Nc2ccccc2C(=O)NCc2cccnc2)c1
    2.5%, 0.2%, -3.4, 1.3, -13, 26%, 9
- CCO[C@H]1OC(C(=O)N2CCN(C)CC2)=C[C@@H](c2ccc(Br)cc2)[C@@H]1CCCO
    1.3%, 0.7%, -0.9, -0.4, -14, -1%, -14
- COc1ccc(C(=O)N2CCC(C(=O)Nc3cccc(C)c3)CC2)cc1OC
    ., -0.5%, 2.3, 0.2, -18, 4%, 22
- CCOC(=O)c1ccc(NC2c3ccccc3C(=O)N2c2cccnc2)cc1 (configuration not stated)
    2.1%, -1.6%, ?, -0.1, -19, 8%, -6
- Cc1c(NC(=S)Nc2cccc(Cl)c2)c(=O)n(-c2ccccc2)n1C
    -1.1%, ., 1.2, 0.1, 11, -2%, -14
- Cc1cc(C)nc(SCCC(=O)Nc2ccccc2Cl)n1
    0.3%, 0.2%, 3.0, -0.6, 8, 4%, -23
- CC(=O)c1c(C)[nH]c(C(=O)OCC(=O)N(C)c2c(N)n(Cc3ccccc3)c(=O)[nH]c2=O)c1C
    3.6%, ., ., -0.7, -3, ., 0
- COc1ccc(NC(=S)N2CCC(C(=O)c3ccc(Cl)cc3)CC2)cc1
    -1.7%, 0.8%, ., 0.1, ., ., -14
- COc1ccc(CNC[C@H]2O[C@@H](n3ccc(=O)[nH]c3=O)[C@H](O)[C@@H]2O)cc1
    0.1%, -0.9%, ., -0.2, ., ., -11
- CCc1nnc2c(Nc3cccc(C(C)=O)c3)nc3ccccc3n12
    1.0%, -0.7%, ., -0.2, ., ., -1
- Cc1ccc2onc(CC(=O)N3CCN(c4ccc(F)cc4)CC3)c2c1
    -0.1%, -1.7%, ., 0.9, ., ., -21
- CC(C)Nc1nc(NCCN2CCCC2)c2sc(-c3ccccc3)cc2n1
    1.9%, -30%, ., -0.7, ., ., .
- CCOc1ccc(NC(=O)c2nc(S(=O)(=O)Cc3ccccc3F)ncc2Cl)cc1
    -1.8%&7.9%, 6.6%&1.7%, ., 2.5&-0.1, 14, ., -21
- COC(=O)Cc1cc(=O)oc2cc(OC)ccc12
    12%[38.3 µM], 21%, -1.4, 2.8, 9, -4%, 2
- O=C(c1cc(Br)ccc1Cl)N1CCN(c2ncccn2)CC1
    2.9%, ., 3.2, 0.7, -8, -8%, -10
- CCCCn1nc(C(=O)NCC(c2cccs2)N2CCOCC2)c2ccccc2c1=O (configuration not stated)
    1.9%, -0.9%, ., 3.2, -16, ., -1
- O=C(O)COc1ccc(-c2nc(-c3ccccc3)c(-c3ccccc3)[nH]2)cc1
    -1.9%, ., -0.6, -0.7, -1, 18%, 30
- COc1ccccc1C(=O)C1CCCN(C(=O)c2ccc(C(C)=O)s2)C1 (configuration not stated)
    0.2%, -1.7%, ., 1.8, -1, 18%, -13
- COc1ccc(NC(=O)c2oc3ccc4c(c3c2C)C(=O)CC(C)(C)O4)cc1OC
    2.5%, -2.5%, ., 1.0, ., ., -11
- O=C(Nc1cc(-c2nc3ccccc3s2)ccc1Cl)c1cc2ccccc2o1
    1.6%, -2.7%, ., -0.6, ., ., 7
- COc1ccc(Cl)cc1NC(=O)NCCN1CCNC1=O
    1.6%, -0.3%, 2.0, 0.1, 4, 6%, 26
- CN(C)CCCNC(=O)CC(c1ccc(F)cc1)c1ccco1 (configuration not stated)
    0.0%, -0.4%, 1.6, 0.1, -24, 8%, -5
- CC1(C)NC(=S)NC1=S
    -0.3%, -1.9%, ., -0.1, ., ., 2
- CC(C)C(=O)Nc1cc2c3c(c1)CCC(=O)N3CCC2
    1.7%, 1.1%, -0.1, 0.8, -2, 10%, 5
- O=C(NCc1ccccc1)C(c1ccc(F)cc1)N(C(=O)c1csnn1)C1CCCC1 (configuration not stated)
    3.7%, ., 2.9, 7.4, 12, 15%, 6
- C=C1C=C(C(F)F)n2ncc(C(=O)Nc3ccc(N(CC)CC)cc3)c2N1
    -0.3%, -0.7%, ., -1.0, ., ., .
- COc1cc(NC(=S)N2CCCC2)cc(OC)c1
    0.8%, 1.1%, ., 0.2, -3, -4%, 4
- Cn1c(=O)c2c(nc(Oc3ccccc3Cl)n2C)n(C)c1=O
    0.4%, -1.5%, -0.2, 0.9, 21, 18%, -7
- CC(=O)NCC(=O)N1CCCC(C(=O)c2ccc(Oc3ccccc3)cc2)C1 (configuration not stated)
    1.7%, ., 6.1, -0.2, 1, -8%, 5
- COc1ccc(S(=O)(=O)N2CCC(O)(c3cccnc3)CC2)cc1OC
    -0.5%, ., -1.4, 0.4, 13, 17%, -20
- O=C(CCC(=O)N(CC(=O)NC1CCCCC1)c1ccc(F)cc1)Nc1ccccn1
    0.8%, ., -3.9, -0.4, -10, 6%, 12
- COc1ccc(NC(=O)CN(C)C(=O)c2ccc(S(=O)(=O)N3CCOCC3)cc2)cc1
    0.4%, 1.7%, ., 0.0, ., ., 13
- CN1CCN(NC(=O)c2cc(-c3ccccn3)nc3ccccc23)CC1
    0.1%, 0.4%, -5.5, -0.6, -3, -11%, -9
- CC(=O)C1=C(O)C(=O)OC1c1ccc(Cl)cc1 (configuration not stated)
    0.2%, ., -0.7, -0.4, 14, -9%, -7
- Cc1cc(=O)[nH]c(SCC(=O)N2CCCC(C)C2)n1 (configuration not stated)
    3.4%, ., ., 0.7, -3, -1%, 9

(further entries)
Values in the order – PINK1 modulator, ClpP mod, Menin MLL FP FL, TRPML1 ag, TRPV1 PAM, Sfp PPTase inh, TRPML1 inh
- S=c1sc2c(Cl)ncnc2n1-c1ccccc1
    -2.8%, 1.5%, 1.5, 2.6, 4, 5%, 75
- CCOc1ccc(S(=O)(=O)Nc2cccc(C(=O)N3CCN(c4cccc(OC)c4)CC3)c2)cc1
    -1.9%, ., ., 1.6, -4, ., 12
- CSc1cc(-c2ccc(Cl)cc2)n(Cc2ccccc2)c(=O)c1C#N
    0.7%, -19%, -1.7, 1.0, 9, 0%, -11
- CC(=O)Nc1ccc(Nc2cc(C)nc3c(-c4ccc(Cl)cc4)c(C)nn23)cc1
    0.1%, 28µM*, 4.6, 0.1, 2, -14%, 0
- Cc1cccc(-c2noc(CSc3ccccc3)n2)c1
    0.8%, 1.2%, 0.6, -0.3, 8, 16%, 2
- COCCc1nc2ccc(C(=O)N3CCCCC3COC)cc2o1 (configuration not stated)
    2.6%, -1.6%, 5.6, -0.3, 0, 11%, -6
- CCOc1ccc(-n2cc(C(=O)N3CCN(C)CC3)c3cc(OC)c(OC)cc3c2=O)cc1
    0.7%, -4.9%, 0.2, 0.7, -6, 12%, 5
- COc1ccc(C(=O)CNc2cccc(F)c2)cc1
    2.4%, ., -8.0, -0.4, 8, -5%, -8

Look-ups from the list:
PINK1 modulator, `COc1ccc(C(=O)CNc2cccc(F)c2)cc1` reads 2.4%
PINK1 modulator, `CC(=O)Nc1ccc(Nc2cc(C)nc3c(-c4ccc(Cl)cc4)c(C)nn23)cc1` reads 0.1%
